Source: PubChem
T cruzi repl: T. cruzi replication inhibition | T. cruzi beta-gal in NIH3T3, luminescence, 90 h | inhibition, % (test concentration not listed) | 1.4% of 300,000 active | AID 1885;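 active = mean inhibition across valid replicates above about 55%, limit read from the data; inconclusive = mean below that limit but half or more replicates reach it; inactive = mean below it, under half of replicates reach it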;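 note: signal also drops with host cell toxicity which is not excluded here; 0% = plate median of DMSO wells and 100% = zero luminescence signal; higher percent means less beta-gal luminescence so fewer parasites; stock transfer was 50 nL into about 50 µL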
RanGTP-Impb inh: inhibitors of RanGTP-importin-beta interaction, primary screen, biochemical, FRET, CFP-Ran, YFP-importin-beta, homogeneous. AID 2216. inhibition, % (concentration not given with the values). 1.1% of 300,000 active. cell-free CFP-Ran/YFP-importin-beta FRET ratio;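 active = most replicates above 15%; inconclusive = exactly half above 15%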;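 note: 0% = DMSO wells and 100% = Ran loaded with GDP instead of GTP; wells of about 40 µL received 100 nL stock; the first replicate is given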
ALR inh: inhibitors of human sulfhydryl oxidase ALR; P55789; purified ALR, DTT oxidation, H2O2 HRP-luminol luminescence; inhibition, % (concentration not given with the values); 3.8% of 290,000 active; AID 485317;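 active = mean and each replicate at 75% or more; inconclusive = only one of the two met; inactive = neither met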;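 note: stock transfer was 7.5 nL into about 7.5 µL; 0% = neutral wells and 100% = wells with inactivated enzyme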
Target sequence (P55789 whole entry, looked up): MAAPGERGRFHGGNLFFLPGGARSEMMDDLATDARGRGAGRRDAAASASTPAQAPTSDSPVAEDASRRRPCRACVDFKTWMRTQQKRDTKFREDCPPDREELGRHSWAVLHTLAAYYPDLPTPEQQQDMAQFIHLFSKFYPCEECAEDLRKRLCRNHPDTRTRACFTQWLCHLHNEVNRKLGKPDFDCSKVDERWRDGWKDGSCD
Calb FLC: affects C. albicans growth with fluconazole; C. albicans CaCi-2 (fluconazole-resistant clinical isolate) + fluconazole, Alamar Blue growth, 48 h; growth inhibition, % (concentration not given with the values); 0.57% of 300,000 active; AID 1979;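 active = most replicates above 75%; inconclusive = exactly half above 75%; inactive = most below 75%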;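 note: all wells also contain fluconazole at 8 µg/ml as a sub-toxic cotreatment; 0% = median of DMSO wells and 100% = median of geldanamycin control wells; wells of about 8 µL received 7.5 nL stock; the first replicate is given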
rRNA inh HTS: inhibits bacterial ribosomal RNA function over humanized ribosomes | GFP signal change (wild-type ribosome), % (no concentration beside the values) | AID 720706 | E. coli WT GFP vs humanized-ribosome RFP mutants, fluorescence, 24 h; active compounds read low; DMSO median 0, no signal -100 | 1.6% of 350,000 active;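 active = significant combined selectivity score with lowered wild-type GFP, culture density cut under 30%, mutant RFP and density less affected; inactive = any of these conditions unmet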; note: one replicate is shown; some compounds called inactive have numbers as strong as hits
FGF22 binding: FGF22 (human) thermal shift binding. calls only at 9.99 µM. recombinant FGF22 thermal shift, SYPRO orange fluorescence; percent of sucrose octasulfate shift, DMSO zero. AID 651658. 1.5% of 340,000 active;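 active = melting point raised past a set limit in the mean and every replicate; inconclusive = no clear call; three in four hits are not shown here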
Target sequence (Q9HCT0 whole entry, looked up): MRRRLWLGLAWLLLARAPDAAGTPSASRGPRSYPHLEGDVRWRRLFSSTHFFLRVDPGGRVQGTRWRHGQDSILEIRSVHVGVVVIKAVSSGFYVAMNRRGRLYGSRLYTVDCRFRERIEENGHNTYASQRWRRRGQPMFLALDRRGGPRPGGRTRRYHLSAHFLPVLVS
Beta cell apopt: blocks beta cell apoptosis; INS-1E cytokine-induced death, ATP luminescence, 48 h; percent of positive-control rescue, neutral wells zero; protection from apoptosis, % (test concentration not listed); 0.8% of 300,000 active; AID 435005;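 active = all replicates at 75% or more, or half of them and the mean; inconclusive = half reach 75% but not the mean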;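 note: 0% = cytokine-treated negative control wells and 100% = positive control rescue; higher means more ATP so stronger rescue from cytokine killing; wells of about 40 µL received 100 nL stock; the first replicate is given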
AF4-AF9 inh: inhibitors of human MLL-AF4/AF9 interaction | P42568 | AlphaScreen, biotin-AF4 peptide binding to FLAG-AF9 | 0.47% of 350,000 active | inhibition, % at 10 µM;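 active = every replicate reaching a set inhibition limit, whatever the replicate mean, cut at about 25% in these data; inconclusive = mean inhibition reaches that limit but some replicates miss it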;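 note: 0% = plate neutral control median and 100% = total signal loss; the record names both 10 and 1 µM as test concentration; the first replicate is given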
Target sequence (P42568 whole entry, looked up): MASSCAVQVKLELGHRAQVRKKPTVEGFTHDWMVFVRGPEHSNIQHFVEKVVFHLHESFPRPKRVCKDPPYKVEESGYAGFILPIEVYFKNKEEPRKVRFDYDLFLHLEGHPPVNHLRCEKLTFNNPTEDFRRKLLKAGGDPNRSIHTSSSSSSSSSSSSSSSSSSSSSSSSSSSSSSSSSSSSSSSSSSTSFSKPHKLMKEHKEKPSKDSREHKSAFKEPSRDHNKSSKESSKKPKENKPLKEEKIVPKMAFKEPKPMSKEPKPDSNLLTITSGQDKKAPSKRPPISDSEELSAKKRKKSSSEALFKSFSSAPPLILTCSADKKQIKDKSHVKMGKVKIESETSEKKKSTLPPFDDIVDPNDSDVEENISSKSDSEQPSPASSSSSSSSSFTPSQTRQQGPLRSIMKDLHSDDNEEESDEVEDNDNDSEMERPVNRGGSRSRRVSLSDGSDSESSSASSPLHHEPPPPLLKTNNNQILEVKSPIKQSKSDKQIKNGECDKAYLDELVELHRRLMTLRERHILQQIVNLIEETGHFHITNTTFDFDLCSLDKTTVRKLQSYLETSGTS
rRNA inh HTS OD600: recorded beside rRNA inh HTS, whose call it bears; OD600 change, %; measured here: OD600 growth;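 optical density of the mix in the first replicate; 0 = DMSO median and -100 = no signal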
rRNA inh HTS RFP: further read-out of rRNA inh HTS, marked with its call; RFP signal change, %; measured here: RFP humanized mutant strains;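 first replicate; 0 = DMSO median and -100 = no signal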
The depositor's hits bear a star; i = inactive; ? = inconclusive; . = not tested or not shown; & = joins results of further samples. These rows are one share of the data; the hit share may differ from the screen's.

compound	Beta cell apopt	ALR inh	FGF22 binding	Calb FLC	rRNA inh HTS OD600	RanGTP-Impb inh	rRNA inh HTS	rRNA inh HTS RFP	T cruzi repl	AF4-AF9 inh
CC(C)=C1C2CCC1C(C(=O)Nc1cc(C)cc(C)c1)C2C(=O)O (stereo not given)	-1	-3	i	-12	-2	2.7	0	-0.3	-13	0.2
CC1(OC(=O)c2ccc(Cl)nc2)C(=O)C=C2C=C(c3ccc(C#N)cc3)OC=C2C1=O (stereo not given)	0	-7	.	-4	.	-4.6	.	.	-8	.
C=CCNC(=O)c1ccc2c(=O)n(CCCN3CCCC3=O)c(=S)[nH]c2c1	-5	54	i	-6	2	3.3	11	0.2	-20	-1.5
CN1C(=O)/C(=N\OC(=O)c2ccccc2Cl)c2ccccc21	-14	62	i	-3	5	-0.1	9	-2.5	-26	2.0
C=C[C@]1(C)C[C@H]1[C@H](NP(=O)(c1ccccc1)c1ccccc1)c1ccccc1	3	-5	i	.	-6	.	-8	-9.6	.	-3.3
CCCC(=O)Nc1cc(C(=O)N(C)CC(OC)OC)ccc1S(=O)(=O)c1ccc(C)cc1	.	.	i	0	13	-2.4	9	-6.3	-5	-8.4
O=C(NCc1ccco1)/C(=C\c1cccnc1)NC(=O)c1ccccc1F	-1	-15	.	4	.	0.4	.	.	7	.
COc1cc(CN(C(=O)c2cc3ccccc3oc2=O)C2CCS(=O)(=O)C2)cc(OC)c1OC (stereo not given)	.	-9	i	-1	12	6.0	12	-0.5	-3	-2.1
Cc1nn(CCCC(=O)Nc2ccc(Br)cc2F)c(C)c1[N+](=O)[O-]	-8	-2	i	10	-12	-3.8	-17	2.2	11	-3.0
CC(C)n1nnnc1SCC(=O)c1ccc2c(c1)OCCO2	-6	71	.	-6	.	-3.1	.	.	-9	.
CCn1c(=O)c(=O)[nH]c2cc(C(=O)NC3CCCc4ccccc43)ccc21 (stereo not given)	-1	-11	.	-6	-27	4.5	-28	10	-8	.
O=C(CN1CCOCC1)Nc1ccccc1C(=O)Nc1ccccc1	-5	.	i	-1	0	4.5	0	-2.7	2	0.2
CON1C(=O)C(=O)N(OC)C(C)(C)C1C (stereo not given)	1	-1	.	-3	.	-2.4	.	.	-8	.
COc1ccc(S(=O)(=O)N2CCCCCC2)cc1C(=O)N1CCCCC1	-2	-4	i	-3	.	2.5	.	.	14	-1.3
COc1cccc(NC(=O)COC(=O)c2cc(=O)c3ccccc3o2)c1	-3	-6	i	.	16	.	10	-2.2	.	-2.2

Complete entries, quoted from the list. Screens in order: Beta cell apopt	ALR inh	FGF22 binding	Calb FLC	rRNA inh HTS OD600	RanGTP-Impb inh	rRNA inh HTS	rRNA inh HTS RFP	T cruzi repl	AF4-AF9 inh
Results for C=CCNC(=O)c1ccc2c(=O)n(CCCN3CCCC3=O)c(=S)[nH]c2c1 = -5	54	i	-6	2	3.3	11	0.2	-20	-1.5
Results for CC1(OC(=O)c2ccc(Cl)nc2)C(=O)C=C2C=C(c3ccc(C#N)cc3)OC=C2C1=O (stereo not given) = 0	-7	.	-4	.	-4.6	.	.	-8	.

Next entries.
compound	Beta cell apopt	ALR inh	FGF22 binding	Calb FLC	rRNA inh HTS OD600	RanGTP-Impb inh	rRNA inh HTS	rRNA inh HTS RFP	T cruzi repl	AF4-AF9 inh
O=C(CCCC(=O)OCC(=O)c1ccc(Cl)cc1)NC1CCCCC1	-2	0	i	2	7	-3.7	10	-1.8	-3	-2.2
CCC(=O)c1cc(F)c(N2CCN(C(=O)Cc3ccccc3)CC2)cc1C	4	-29	.	?	.	6.1	.	.	1	.
Cc1nn(C)c(Oc2cccc(Cl)c2)c1C(=O)Nc1ccc(F)cc1	4	-12	.	-26	.	13	.	.	-5	.
CC(=O)NS(=O)(=O)c1ccc(NC(=O)COc2ccc(C(=O)c3ccccc3)cc2)cc1	-6	-3	i	-13	-14*	-2.2	-27*	-9.6*	-12	13
CN(CCOc1ccccc1)C(=O)c1cc(S(=O)(=O)N2CCCCC2)ccc1Cl	5	-6	i	-7	-26	-1.6	-13	-0.6	6	0.8
CCN(C#N)c1nc(N(C)C)nc(N(C)C)n1	-4	-7	.	15	.	-0.7	.	.	-12	.
Cc1cccn2c(=O)c3cc(C#N)c(=NC(=O)c4cccs4)n(CC(C)C)c3nc12	3	-5	i	-6	-4	151*	25	6.5	21	-2.6
O=C(CN1CCN(c2cccc(Cl)c2)CC1)NC1CCCc2ccccc21 (stereo not given)	-2	.	i	10	-36	4.3	-17	5.9	33	-7.7
COc1ccc(CNC(=O)Cc2c(C(=O)O)[nH]c3ccccc23)c(OC)c1	1	0	i	8	12	-2.7	12	0.1	-17	-8.5
CN(CC(=O)Nc1ccc(F)cc1)C(=O)CN1C(=O)c2ccccc2C1=O	-3	-10	i	.	9	.	13	2.8	.	-0.4
CN(C)CCNC(=O)Cn1c(=O)c2cccn2c2ccc(F)cc21	12	-6	i	2	12	-5.2	18	-4.1	-5	-0.5
O=C(Nc1nnc(SCc2ccc(Cl)cc2)s1)C1CC(=O)N(Cc2ccccc2)C1 (stereo not given)	-10	-3	i	?	4	2.2	14	-0.9	-10	-0.8
COc1cn(-c2ccccc2)nc1C(=O)NCc1ccc(C)cc1	-10	-3	i	2	-30	3.8	-20	-3.3	10	-0.8
COc1cccc(NC(=S)N(Cc2ccccn2)Cc2ccccc2Cl)c1	5	-9	i	-5	-2	-1.1	-2	7.7	24	2.4
Cc1cccc(C)c1OCC(=O)N/N=C/c1cc2c(cc1[N+](=O)[O-])OCO2	1	-12	i	44	11	-2.3	18	0.7	7	-8.2
COC(=O)c1ccc(Nc2nc(-c3ccncc3)nc3ccccc23)cc1	-3	3	i	-13	5	0.6	9	2.0	-6	0.8
Cc1cccc(N2CCN(C(=O)c3ccc(NS(=O)(=O)c4c(C)noc4C)cc3)CC2)c1C	1	-11	.	17	.	-1.7	.	.	29	.
CCCC1=NN2C(=N)/C(=C\c3ccc(SCc4ccco4)o3)C(=O)N=C2S1	8	99*	.	?	.	9.5	.	.	-10	.
CCS(=O)(=O)N1CCCC(C(=O)NCCCN(C)Cc2ccccc2)C1 (stereo not given)	-3	-3	.	-13	.	0.3	.	.	7	.
O=C(Oc1ccc2cc(Br)ccc2c1)c1cccnc1	-9	-20	.	10	.	2.2	.	.	8	.
CCOc1ccccc1NC(=O)c1cccc(NC(=O)CC(c2ccccc2)c2ccccc2)c1	8	-4	i	5	12	3.9	8	3.5	46	-40
CCCNC(=O)Nc1ccc(F)c(Cl)c1	-5	-7	i	50	-13	0.9	-14	-7.3	2	-0.3
CN(C)CCCNC(=S)Nc1ccc(-c2ccccc2)cc1	-8	?	i	?	-4	?	3	5.6	-4	0.6
Cc1ccc(N/C=C(\C#N)c2ccc(OCCCF)cc2)cc1	4	-3	.	-2	.	-0.5	.	.	4	.
C=CCn1c(SCC(C)=O)nnc1-c1ccc2ncccc2c1	0	41	i	3	-1	0.3	1	0.1	1	0.8
CCOc1ccc(C(=O)Nc2nccs2)cc1[N+](=O)[O-]	0	.	i	-8	1	0.2	-3	3.8	-8	2.8
FC(F)(F)COc1cc(-c2nnc(SCc3ccccc3)n2Cc2ccco2)cc(OCC(F)(F)F)n1	9	1	i	5	6	-0.4	10	2.5	?	0.3
CC1CCCCC1NC(=O)COC(=O)c1ccc2ncsc2c1 (stereo not given)	-2	-14	i	.	6	.	-3	0.8	.	2.3
CNC(=O)c1cc(OCC(F)(F)F)ccc1OCC(F)(F)F	-2	.	i	-14	10	1.7	5	20	3	-1.5
N#C/C(=C\c1ccc2c(c1)OCCO2)C(=O)Nc1nccs1	-5	4	i	-3	7	-2.6	-2	0.4	-10	6.4
Cc1ccc(CNC(=O)C2CCC(=O)N(Cc3ccccc3F)C2)s1 (stereo not given)	-5	-2	i	3	8	2.1	13	4.7	9	-2.6
Cc1c(CCC(=O)O)c(=O)oc2cc(OCc3ccccc3F)ccc12	-3	5	i	20	-14	-20	-12	-3.1	-6	-1.2
CNC(=S)N1CCN(C(c2ccccc2)c2ccccc2)CC1	0	-10	.	2	-45	-1.7	-32	-2.7	8	3.6
C/C(=N\NC(=O)COc1ccc(C(C)(C)C)cc1)c1ccccc1	1	-1	i	-1	-69	1.5	-37	6.0	9	1.1
CCC(NC(=O)C1CCCC1)c1ccccc1 (stereo not given)	-5	-5	i	2	.	4.8	.	.	-1	-0.1
Cc1cccc(C)c1NC(=O)C1(N(Cc2ccco2)C(=O)Cn2nnnc2N)CCCCC1	-28	-7	i	-1	11	5.0	22	1.2	4	2.2
COc1cccc(/C=N/N2CCN(Cc3ccccc3)CC2)c1O	-4	63	i	-8	-1	4.1	-1	-2.0	-2	8.0
O=C(NCc1cc2ccccc2[nH]1)c1ccccc1F	4	1	i	10	-14	-4.5	-2	-5.4	-10	-4.4
O=C(C(c1ccccc1)c1ccccc1)N1CCN(CCN2C(=O)c3cccc4cccc(c34)C2=O)CC1	4	-12	i	5	.	0.6	.	.	23	-3.2
CC(C)C(NC(=O)C(NC(=O)C1OC2OC(C)(C)OC2C2OC(C)(C)OC12)C(C)C)C(=O)O (stereo not given)	-3	-2	i	5	10	0.0	9	-3.0	-5	1.8
Cc1ccc(C(=O)Nc2cccc(C(=O)N/N=C/c3ccc(F)cc3)c2)cc1	3	2	i	-1	8	-0.2	-3	-1.4	3	-1.7
Cc1cccc2c(N=NC(=O)C(C)n3cnc4ccccc4c3=O)c(O)[nH]c12 (stereo not given)	-4	2	.	1	-2	-0.7	8	-7.5	17	5.1
O=[N+]([O-])c1ccc(Cl)c(S(=O)(=O)n2ccnc2)c1	0	-6	i	2	12	2.3	0	-6.7	1	-12
CC(=O)NS(=O)(=O)c1ccc(N)cc1	0&2	8&-12	i	.	-1	1.4	-8	-0.1	-8	-2.6&2.5
O=C(CSCc1ccc(Br)cc1)N1CCCC1	0	-26	i	-4	4	0.5	-1	3.5	2	-1.6
CCCNC(=O)COC(=O)CCC(=O)c1ccc(F)cc1	-4	-2	.	-13	.	6.5	.	.	-9	.
O=S(=O)(c1ccccc1)c1nc(-c2ccccc2)oc1NCCCN1CCOCC1	.	12	i	3	-3	-0.2	3	-0.2	3	5.0

In the list so far, 2 contain two or more sulfur atoms:
compound	Beta cell apopt	ALR inh	FGF22 binding	Calb FLC	rRNA inh HTS OD600	RanGTP-Impb inh	rRNA inh HTS	rRNA inh HTS RFP	T cruzi repl	AF4-AF9 inh
O=C(Nc1nnc(SCc2ccc(Cl)cc2)s1)C1CC(=O)N(Cc2ccccc2)C1 (stereo not given)	-10	-3	i	?	4	2.2	14	-0.9	-10	-0.8
CCCC1=NN2C(=N)/C(=C\c3ccc(SCc4ccco4)o3)C(=O)N=C2S1	8	99*	.	?	.	9.5	.	.	-10	.
